KCNQ2 enhance – KCNQ2 (rat) channel potentiation. O88943. CHO-K1 KCNQ2, FluxOR thallium flux fluorescence; stronger effect = higher value. B-score at 10 µM. hit rate 0.54% among 310,000;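 active = fluorescence ratio B-score at least 3 SD of library B-scores, with initial fluorescence B-score within 3 SD, cut at about 5.3 in these data; same plate scores as AID 2156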;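 also: B-score of peak minus minimum over baseline fluorescence ratio after K+ and Tl+ stimulus; positive B-score means potentiation of KCNQ2 with more thallium influx and brighter signal; only the inactives scoring about 0 or higher are listed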
Target sequence (O88943 whole entry, looked up): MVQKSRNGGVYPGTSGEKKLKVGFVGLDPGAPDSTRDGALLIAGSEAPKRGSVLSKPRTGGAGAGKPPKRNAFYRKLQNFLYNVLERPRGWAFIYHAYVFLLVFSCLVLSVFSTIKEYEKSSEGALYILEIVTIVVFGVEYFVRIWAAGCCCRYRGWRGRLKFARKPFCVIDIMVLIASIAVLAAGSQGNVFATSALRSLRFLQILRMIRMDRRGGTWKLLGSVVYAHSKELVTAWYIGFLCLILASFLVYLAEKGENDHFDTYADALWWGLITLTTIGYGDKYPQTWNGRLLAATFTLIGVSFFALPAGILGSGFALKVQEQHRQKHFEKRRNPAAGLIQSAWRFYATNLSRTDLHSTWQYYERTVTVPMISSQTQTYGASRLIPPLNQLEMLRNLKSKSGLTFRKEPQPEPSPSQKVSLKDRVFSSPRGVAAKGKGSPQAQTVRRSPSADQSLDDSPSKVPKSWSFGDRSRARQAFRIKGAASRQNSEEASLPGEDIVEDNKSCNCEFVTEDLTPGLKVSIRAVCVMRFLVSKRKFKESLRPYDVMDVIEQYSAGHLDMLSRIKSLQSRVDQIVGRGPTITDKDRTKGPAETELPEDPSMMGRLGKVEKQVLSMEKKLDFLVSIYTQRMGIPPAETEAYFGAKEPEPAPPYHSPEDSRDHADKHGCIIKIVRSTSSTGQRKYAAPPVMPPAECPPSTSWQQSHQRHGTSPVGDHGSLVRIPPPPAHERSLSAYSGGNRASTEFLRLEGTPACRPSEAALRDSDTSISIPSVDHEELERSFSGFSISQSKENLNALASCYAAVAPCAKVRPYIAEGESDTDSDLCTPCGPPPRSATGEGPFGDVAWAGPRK
KCNQ2 enhance baseline – recorded beside KCNQ2 enhance, whose call it bears; B-score; compound at 10 µM; measured here: initial fluorescence intensity artifact check;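 brightness before thallium and not channel activity; 0 = typical well and far values either way flag optical interference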
An asterisk follows results filed as active. Not all compounds are listed. The share of hits here may be higher or lower than overall.

For CCCc1cc(=O)[nH]c(SCc2ccc(Cl)cc2)n1 the results were KCNQ2 enhance 0.13 and KCNQ2 enhance baseline -0.13.
For O=C(/C=C\Nc1ccccc1Br)c1ccc2c(c1)OCO2 the results were KCNQ2 enhance 1.5 and KCNQ2 enhance baseline 0.3.
CC#CC(=O)N1CCC(CCC(=O)N(C)Cc2ccccc2)CC1 was read as KCNQ2 enhance 2.2 and KCNQ2 enhance baseline 0.03.
Cc1cc(C)cc(OCc2nnc(SCC(=O)OC3CCCCC3)o2)c1 was read as KCNQ2 enhance 0.76 and KCNQ2 enhance baseline -2.1.
CCOc1ccc(NC(=O)NC2(C(=O)NCc3ccco3)CCCCC2)cc1 was read as KCNQ2 enhance 0.27 and KCNQ2 enhance baseline 0.89.
Screening CC(=O)Nc1cc2c(cc1C(=O)C(C)C)OCCO2 returned KCNQ2 enhance 0.12 and KCNQ2 enhance baseline -0.56.
CC(C)Nc1nc(SCC(=O)Nc2ccccc2)nc(N2CCOCC2)n1 was read as KCNQ2 enhance 3.6 and KCNQ2 enhance baseline -0.4.
Screening COc1ccc(N(CC(=O)N2CCN(c3ccccc3F)CC2)S(=O)(=O)c2c(C)n[nH]c2C)cc1 returned KCNQ2 enhance 2.1 and KCNQ2 enhance baseline 0.15.
For CC(C)(C)OC(=O)N1CC(O)CC1C(=O)OCC(=O)c1ccc(Cl)cc1 (centres undefined) the results were KCNQ2 enhance 0.29 and KCNQ2 enhance baseline 0.72.
CCOC(=O)[C@@H]1[C@H]2COc3cc(OC)ccc3[C@@H]2N2C(=O)N(c3cccc(C)c3)C(=O)[C@@]12C was read as KCNQ2 enhance 0.07 and KCNQ2 enhance baseline -0.91.
For CCc1nnc(NS(=O)(=O)c2ccc(NS(=O)(=O)c3ccccc3[N+](=O)[O-])cc2)s1 the results were KCNQ2 enhance 0.71 and KCNQ2 enhance baseline 0.77.
O=C(N/N=C/c1ccc([N+](=O)[O-])o1)c1cc(-c2ccncc2)nc2ccccc12 was read as KCNQ2 enhance 0.18 and KCNQ2 enhance baseline -2.2.
Screening Cc1cccc(OCC(=O)NCC(=O)N/N=C/c2cc(Br)cc(Br)c2O)c1 returned KCNQ2 enhance 10* and KCNQ2 enhance baseline 1.1*.
For COCCNC(=S)N/N=C/c1ccc(OCc2ccc(C(=O)OC)cc2)c(OC)c1 the results were KCNQ2 enhance 0.54 and KCNQ2 enhance baseline 0.88.
For CN(Cc1ccccc1)C(=S)NC(=O)C1CCCCC1 the results were KCNQ2 enhance 2.4 and KCNQ2 enhance baseline 0.12.
Cn1c(=O)c(C(=O)COC(=O)c2cc(C(F)(F)F)nc3c(C(F)(F)F)cccc23)c(N)n(CC2CC2)c1=O was read as KCNQ2 enhance 0.2 and KCNQ2 enhance baseline 0.51.
CC(C)Oc1ccc(CNC(=O)C2CCCN(S(=O)(=O)N3CCOCC3)C2)cc1 (centres undefined) was read as KCNQ2 enhance 1.6 and KCNQ2 enhance baseline 0.12.
`COC(=O)c1cccc(N(CC(=O)NC2CCCC2)C(=O)CNC(=O)c2cccs2)c1` gave KCNQ2 enhance 0.57 and KCNQ2 enhance baseline -0.15.
For O=C(CSc1ccc2nnc(-c3cccnc3)n2n1)NCc1ccco1 the results were KCNQ2 enhance 0.47 and KCNQ2 enhance baseline 0.05.
Brc1ccc(CSc2nnc(-c3cccnc3)o2)cc1 was read as KCNQ2 enhance 0.03 and KCNQ2 enhance baseline 0.74.
CCc1noc(C)c1C(=O)N1CCCC(C(=O)c2cc(F)ccc2F)C1 (centres undefined) was read as KCNQ2 enhance 0.39 and KCNQ2 enhance baseline 0.01.
For O=C(NCCn1cccn1)C1CCC(=O)N(CCc2cccc(F)c2)C1 (centres undefined) the results were KCNQ2 enhance 1 and KCNQ2 enhance baseline 2.2.
`c1ccc2c(-c3nnc(SCc4cn5ccccc5n4)o3)c[nH]c2c1` gave KCNQ2 enhance 0.05 and KCNQ2 enhance baseline -0.28.
For Cc1cccc(N2CC(=O)N(c3cccc(C)c3)CC2=O)c1 the results were KCNQ2 enhance 1.2 and KCNQ2 enhance baseline -1.6.

Pulled one by one from the list above:
CC(C)Oc1ccc(CNC(=O)C2CCCN(S(=O)(=O)N3CCOCC3)C2)cc1 (centres undefined) was read as KCNQ2 enhance 1.6 and KCNQ2 enhance baseline 0.12.
Brc1ccc(CSc2nnc(-c3cccnc3)o2)cc1 was read as KCNQ2 enhance 0.03 and KCNQ2 enhance baseline 0.74.
`COC(=O)c1cccc(N(CC(=O)NC2CCCC2)C(=O)CNC(=O)c2cccs2)c1` gave KCNQ2 enhance 0.57 and KCNQ2 enhance baseline -0.15.
`c1ccc2c(-c3nnc(SCc4cn5ccccc5n4)o3)c[nH]c2c1` gave KCNQ2 enhance 0.05 and KCNQ2 enhance baseline -0.28.
Screening Cc1cccc(OCC(=O)NCC(=O)N/N=C/c2cc(Br)cc(Br)c2O)c1 returned KCNQ2 enhance 10* and KCNQ2 enhance baseline 1.1*.
CCc1noc(C)c1C(=O)N1CCCC(C(=O)c2cc(F)ccc2F)C1 (centres undefined) was read as KCNQ2 enhance 0.39 and KCNQ2 enhance baseline 0.01.

Next structures.
`CCOc1ccc(S(=O)(=O)N2CCC(C(N)=O)CC2)c2ccccc12` gave KCNQ2 enhance 0.01 and KCNQ2 enhance baseline 2.
CCc1nnc(NC(=O)CSc2nnc(COc3ccccc3C)o2)s1 was read as KCNQ2 enhance 0.45 and KCNQ2 enhance baseline 2.4.
Cn1ncc([N+](=O)[O-])c1C(=O)Nc1ccc(C2CCCCC2)cc1 was read as KCNQ2 enhance 0.52 and KCNQ2 enhance baseline -0.56.
Screening CS(=O)(=O)Nc1cccc(C2=NN(S(=O)(=O)c3ccc(F)cc3)C(c3cccs3)C2)c1 (centres undefined) returned KCNQ2 enhance 1.6 and KCNQ2 enhance baseline -0.05.
Screening Cn1cc(CNCc2cn(C)nc2-c2ccc(C3CCCCC3)cc2)cn1 returned KCNQ2 enhance 0.65 and KCNQ2 enhance baseline 2.5.
N#CC1=C2N=C(N)c3ccccc3N2C2=C(C(=O)CCC2)C1c1ccccc1F (centres undefined) was read as KCNQ2 enhance 0.27 and KCNQ2 enhance baseline -1.1.
Screening Cc1cc(C)n2nc(C(=O)NC(c3ccccc3)c3ccccc3)nc2n1 returned KCNQ2 enhance 2.2 and KCNQ2 enhance baseline -0.37.
`CN(C(=O)CN1C(=O)S/C(=C\c2ccccc2)C1=O)C1CCS(=O)(=O)C1` (centres undefined) gave KCNQ2 enhance 0.48 and KCNQ2 enhance baseline -0.87.
For CC1(C)Cc2nc3sc4c(=O)n(Cc5ccccc5)cnc4c3cc2CS1 the results were KCNQ2 enhance 0.37 and KCNQ2 enhance baseline -0.36.
For O=C(CSc1nnc(NC(=O)c2ccco2)s1)Nc1ccccc1Cl the results were KCNQ2 enhance 0.57 and KCNQ2 enhance baseline 1.3.
CCOc1ccccc1N1C(=O)CC(Sc2nccc(C)n2)C1=O (centres undefined) was read as KCNQ2 enhance 0.82 and KCNQ2 enhance baseline 0.82.
For O=S(=O)(c1cccs1)N1CCC(Cc2ccccc2)CC1 the results were KCNQ2 enhance 0.84 and KCNQ2 enhance baseline -0.07.
CCc1nnc(NC(=O)Cn2nnc(-c3ccccc3F)n2)s1 was read as KCNQ2 enhance 0.55 and KCNQ2 enhance baseline -0.05.
`Cc1ccccc1NC(=O)c1ccc2snnc2c1` gave KCNQ2 enhance 0.67 and KCNQ2 enhance baseline 2.4.
Screening CCOC(=O)C1=C(O)/C(=C\c2cccs2)N=C1C returned KCNQ2 enhance 0.63 and KCNQ2 enhance baseline 0.01.
COC(=O)c1ccccc1NC(=O)c1ccc(-c2ccc(Br)cc2)o1 was read as KCNQ2 enhance 1.4 and KCNQ2 enhance baseline -2.
Screening Cc1cc(C)n2nc(SCCC(=O)NCc3ccccc3)nc2n1 returned KCNQ2 enhance 0.28 and KCNQ2 enhance baseline 1.3.
CC(C)CN(C(=O)COC(=O)c1ccc2c(c1)NC(=O)CS2)C1CCS(=O)(=O)C1 (centres undefined) was read as KCNQ2 enhance 0.97 and KCNQ2 enhance baseline -0.2.
O=C(NCc1ccc(Cl)cc1)C(=O)NCC1OCCN1C(=O)c1cccs1 (centres undefined) was read as KCNQ2 enhance 0.29 and KCNQ2 enhance baseline -0.61.
COc1ccc(-c2nc3scc(-c4ccc(OC)c(OC)c4)c3c(=O)o2)cc1 was read as KCNQ2 enhance 0.79 and KCNQ2 enhance baseline 0.1.
`O=C1c2ccccc2C(=O)N1CC(=O)N1c2ccccc2CCc2ccccc21` gave KCNQ2 enhance 0.3 and KCNQ2 enhance baseline -0.27.
Cc1cc(SCC(=O)c2ccc(O)c(O)c2)n2nc(C)c(-c3ccccc3)c2n1 was read as KCNQ2 enhance 2 and KCNQ2 enhance baseline -1.8.
Screening CCOC(=O)C1CCN(C(=O)COc2ccc(S(=O)(=O)N3CCCC3)cc2C)CC1 returned KCNQ2 enhance 0.39 and KCNQ2 enhance baseline -0.21.
For c1ccc2nc3c(nc2c1)CCCC3 the results were KCNQ2 enhance 0.13 and KCNQ2 enhance baseline 1.2.
For CCCNc1nc(-c2cc(C(=O)Nc3ccccc3)on2)cc(C(C)C)n1 the results were KCNQ2 enhance 0.09 and KCNQ2 enhance baseline -0.78.
CC(C)(C)C(=O)Cn1ncc(Br)c(Br)c1=O was read as KCNQ2 enhance 0.81 and KCNQ2 enhance baseline -0.93.
Screening CC(C)=CCN1CCN(Cc2ccc(C#CC(C)(C)O)cc2)CC1CCO (centres undefined) returned KCNQ2 enhance 0.3 and KCNQ2 enhance baseline -1.6.
Screening CCOCC(=O)Nc1nnc(COCC)s1 returned KCNQ2 enhance 0.44 and KCNQ2 enhance baseline 0.32.
For CC(C)OC(=O)CSc1nnc(CNc2cccc(Cl)c2)n1C the results were KCNQ2 enhance 0.01 and KCNQ2 enhance baseline -1.4.
Screening CCOc1ccc(C2C([N+](=O)[O-])=C(C)N(C)C(=O)N2C)cc1OC (centres undefined) returned KCNQ2 enhance 0.68 and KCNQ2 enhance baseline -0.08.
Screening O=C(CCCNS(=O)(=O)c1ccc(Cl)c(Cl)c1)NCCc1ccccn1 returned KCNQ2 enhance 1.8 and KCNQ2 enhance baseline 0.43.
COc1cc(C(=O)Nc2c(C)cc(C)cc2C)c(-n2cnnn2)cc1OC was read as KCNQ2 enhance 1.5 and KCNQ2 enhance baseline -0.6.
CCOc1ccc(-c2nnn(CC(=O)N3CCN(c4ccc(F)cc4)CC3)n2)cc1OCC was read as KCNQ2 enhance 0.02 and KCNQ2 enhance baseline 0.56.
Screening Cc1ccc(-n2c(N)c(C(=O)Nc3ccccc3F)sc2=S)cc1C returned KCNQ2 enhance 0.67 and KCNQ2 enhance baseline 0.04.
CCC(=O)NC(=S)Nc1cccc(NC(=O)c2ccccc2Cl)c1 was read as KCNQ2 enhance 0.67 and KCNQ2 enhance baseline -2.4.
Screening Cc1ccc(C2=NS(=O)(=O)N(C)C(C(=O)NCc3ccc4c(c3)OCO4)=C2)cc1 returned KCNQ2 enhance 3.4 and KCNQ2 enhance baseline -1.1.
For COC(=O)C1=C2SC(C)C(=O)N2C(N)=C(C#N)C1c1ccc(OC)c(OC)c1 (centres undefined) the results were KCNQ2 enhance 1.7 and KCNQ2 enhance baseline -0.98.
`CN(C)S(=O)(=O)N1CCC(Oc2cccc(C(=O)NC3CCCCC3)c2)CC1` gave KCNQ2 enhance 0.63 and KCNQ2 enhance baseline 1.4.
O=C(NC(=S)NCc1cccnc1)c1cc(Br)ccc1Cl was read as KCNQ2 enhance 1.3 and KCNQ2 enhance baseline 0.93.
For Cc1ccc(C(=O)COC(=O)CNC(=O)CNC(=O)c2ccc(C)cc2)cc1 the results were KCNQ2 enhance 0.66 and KCNQ2 enhance baseline 1.1.
Screening Cc1ccccc1OCC(=O)NN1C(=O)C2C3C=CC(O3)C2C1=O (centres undefined) returned KCNQ2 enhance 2 and KCNQ2 enhance baseline 0.9.
Screening Cn1nc(C(C)(C)C)cc1NC(=O)Nc1cc(Cl)cc(Cl)c1 returned KCNQ2 enhance 2 and KCNQ2 enhance baseline -1.
`Cc1ccc(-c2nn(-c3ccccc3)cc2/C=N/O)cc1` gave KCNQ2 enhance 5.4* and KCNQ2 enhance baseline 1.1*.
COc1cc(-n2c(=O)c3ccccc3n(Cc3cccnc3)c2=O)cc(OC)c1OC was read as KCNQ2 enhance 2.2 and KCNQ2 enhance baseline -1.1.
Screening COc1ccc(/C=N/NC(=O)Cc2cc(OC)c(OC)cc2[N+](=O)[O-])cc1 returned KCNQ2 enhance 0.45 and KCNQ2 enhance baseline -0.01.
For COc1cc([N+](=O)[O-])cc(/C=N/NC(=O)Cn2cncn2)c1O the results were KCNQ2 enhance 0.56 and KCNQ2 enhance baseline 0.14.
`COC(=O)C1=C(C)N(C)C(=S)NC1c1ccccc1` (centres undefined) gave KCNQ2 enhance 0.6 and KCNQ2 enhance baseline 0.01.
Screening Cc1cccc(N2CCN(C(=O)C(C)C)CC2)c1C returned KCNQ2 enhance 1.6 and KCNQ2 enhance baseline 0.89.
`COc1nc(N)c(S(=O)(=O)c2ccccc2)cc1C#N` gave KCNQ2 enhance 0.38 and KCNQ2 enhance baseline -0.45.
COc1ccc(Cl)c(Cn2c(NCC(C)O)nc3c2c(=O)n(C)c(=O)n3C)c1 (centres undefined) was read as KCNQ2 enhance 1.5 and KCNQ2 enhance baseline 0.72.
For CNC(=O)C1CCN(S(=O)(=O)c2c(C)noc2/C=C/c2ccc(C)cc2)CC1 the results were KCNQ2 enhance 0.01 and KCNQ2 enhance baseline 0.32.
COCCNC(=O)c1ccccc1NC(=O)c1ccccc1SC was read as KCNQ2 enhance 0.33 and KCNQ2 enhance baseline 4.2.
CCCS(=O)(=O)N1CCN(c2ccccc2F)CC1 was read as KCNQ2 enhance 0.04 and KCNQ2 enhance baseline 0.06.
`O=C(Nc1cccc2nsnc12)C1CC(=O)N(c2ccccc2)C1` (centres undefined) gave KCNQ2 enhance 0.13 and KCNQ2 enhance baseline -0.72.
O=C(N/N=C/c1ccc2cccc(OCc3ccccc3)c2n1)c1ccc(Cl)cc1 was read as KCNQ2 enhance 0.17 and KCNQ2 enhance baseline 0.4.

Source: PubChem (Johns Hopkins Ion Channel Center)
